Measles inh – inhibitors of measles virus growth in infected cells | AID 745 | z-score (concentration not given with the values) | infected Vero cells, GFP fluorescence, 64 h; hits give low values | 0.1% of 33,000 active;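 active = z-score under -3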;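 also: score is relative to mean and SD of the compound wells of a plate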
Starred values were filed as active, the others as inactive. An excerpt; rates above refer to the full screens.

SMILES | Measles inh
COc1ccc(NC(=O)c2sc(-c3ccccc3)nc2C)cc1 | -0.45
CC1(C)Cc2ccccc2-c2nc3[nH][nH]c(=S)n3c(=O)c21 | -1.3
O=[N+]([O-])c1c(Oc2ccc(Cl)cc2)ccc2nsnc12 | -0.31
CC1=C(C(=O)Nc2cccc(C)c2C)C(c2cccc(Cl)c2)NC(=S)N1 (stereo not drawn) | 0.27
CCOC(=O)c1c(C)n(-c2ccccc2Br)c2c1cc(O)c1ccccc12 | 0.05
O=C(Nc1cc(=O)c2ccccc2o1)N1CCOCC1 | -0.96
S=C1NC(c2ccc(Br)cc2)=CC(c2ccccc2Cl)N1 (stereo not drawn) | -1
Cc1cccc(C(=O)Oc2ccc(C=Nc3ccccc3Cl)cc2[N+](=O)[O-])c1 | 0.72
Cc1ccc(C(C(=O)Nc2ccc(C(C)C)cc2)N(C)C(=O)c2cnccn2)cc1 (stereo not drawn) | 0.25
O=C(CC1(C(F)(F)F)NCCN1)c1cccc([N+](=O)[O-])c1 | 1.4
CC(=O)N1CCC2(O)CCCCC2C1c1ccccc1 (stereo not drawn) | 0.03
COc1ccccc1N1C(=O)c2ccc(-c3nc4cc(C)ccc4o3)cc2C1=O | -0.01
O=C(Cn1c(=O)[nH]c2ccsc2c1=O)NCc1cccs1 | -0.15
CC(=O)N1CCc2cc(Br)cc(S(=O)(=O)NCCCN3CCN(c4cccc(Cl)c4)CC3)c21 | -0.3
COc1ccc(-n2ccnc2SCC(=O)Nc2cccc(OC)c2)cc1 | -0.98
CCOc1ccc(NC(=O)Cn2c(=O)n(-c3ccc(OCC)cc3)c(=O)c3sccc32)cc1 | -0.49
CCOc1cccc2c1NC(C)(C)c1sn(-c3ccc(C)c(C)c3)c(=S)c1-2 | 0.42
COC(=O)CSc1nnc(-c2ccncc2)o1 | -1.3
O=C(Nc1nnc(CCS(=O)(=O)c2ccc(Cl)cc2)s1)c1ccc(F)cc1 | -0.49
CCCCOc1cccc(C(=O)N2CCN(c3ccc([N+](=O)[O-])cc3)CC2)c1 | -0.7
COC(=O)c1c(NC(=O)c2csc3c2CCC(C)C3)sc2c1-c1ccc(OC)cc1CC2 (stereo not drawn) | -0.71
CCC(=O)N1CCN(S(=O)(=O)c2ccc(C)cc2)C1c1ccc(OC)cc1 (stereo not drawn) | -0.62
COC(=O)C1=C(C)N(CCc2ccccc2)C(=O)C1 | 1.3
CC1=C(C(=O)Nc2cccc(C)n2)C(c2ccsc2)C2=C(CCCC2=O)N1 (stereo not drawn) | -2
CC1SC2(C(=O)Nc3ccccc32)N(c2ccc(F)cc2)C1=O (stereo not drawn) | -0.04
O=C(CC1(O)C(=O)Nc2ccccc21)c1ccc(F)cc1 (stereo not drawn) | -0.08
COc1ccccc1NC(=O)c1c(N)sc2c1CCC2 | 0.01
CCOc1ccc(N(C)S(=O)(=O)c2ccc3[nH]cc(C(=O)NC4CCCC4)c(=O)c3c2)cc1 | 0.27
Cc1ccc(CCNC(=O)CCCn2c(=O)[nH]c3ccccc3c2=O)cc1 | -0.65
O=C(O)c1[nH]c2ccc(Cl)cc2c1CC(=O)N1CCCC1 | 0.85
C[n+]1cc(-c2ccc3cccc([N+](=O)[O-])c3n2)cc2ccccc21 | 1.5
O=C(CSc1nnc2c(n1)-c1cccc3cccc-2c13)Nc1cccnc1Cl | 0.14
O=C(CCn1c(=S)[nH]c2cc3c(cc2c1=O)OCO3)NC1CCCC1 | 0.96
CC(C)(C)c1ccc(OCC(O)CN2CCN(Cc3ccc4c(c3)OCO4)CC2)cc1 (stereo not drawn) | -1.9
Cc1c(NC(=O)c2ccc(F)cc2[N+](=O)[O-])c(=O)n(-c2ccccc2)n1C | -1.3
COc1ccc(-c2cc(C(=O)NCc3cnn(C)c3)c3ccccc3n2)cc1OC | -1.1
CCn1cc(C(=O)Nc2cc(Cl)ccc2OC)c(=O)c2ccc(C)nc21 | 0.75
COC(=O)CSc1nc2c(c(=O)[nH]c(=O)n2C)n1CCC(C)C | -0.45
CSC(N)=NS(=O)(=O)c1ccc(C)cc1 | 0.48
CCc1ccc(-n2c(=O)c3ccccc3c3ccccc3c2=O)cc1 | -0.8
Clc1ccc(Nc2ncnc3c2cnn3Cc2ccccc2)cc1 | -1.1
O=C(NCCCN1CCN(c2ccccc2F)CC1)C1CCC(Cn2c(=S)[nH]c3ccccc3c2=O)CC1 (stereo not drawn) | -2.1
Nc1nnc(CCC2CCCCC2)s1 | -1.7
CC1CCCC(C)N1CCNC(=O)CCN1C(=O)COc2ccccc21 (stereo not drawn) | -0.4
CCC1C(=O)C(C)(C)C(=O)OC1c1cccc([N+](=O)[O-])c1 (stereo not drawn) | 2.1
Cc1ccc2c(c1)N(CC(=O)NCCc1ccc(Cl)cc1)C(=O)CO2 | -0.02
COC(=O)c1c(NC(=O)COc2cc(C)cc(C)c2)sc2c1C(C(=O)OC)CC2 (stereo not drawn) | 0.09
Cc1nc2c(C(=O)NCCC(C)C)cnn2c(C)c1Cc1ccccc1F | -0.33
COc1cc(C(=O)Nc2ccc3oc(-c4ccc(I)cc4)nc3c2)cc(OC)c1OC | 0.55
O=C(CSc1nnc(-c2ccco2)c(-c2ccco2)n1)Nc1cccc(C(=O)O)c1 | -1.6
Cc1ccc(-c2noc(-c3ccccc3F)n2)cc1 | -0.61
O=c1c2sc3ccccc3c2[nH]c(=S)n1Cc1cccnc1 | 0.19
CCOc1cc(C2C(C(=O)OC(C)C)=C(C)NC3=C2C(=O)CC(C)(C)C3)cc(Br)c1O (stereo not drawn) | -1.4
CC(=O)N1c2ccc(N)cc2C(C)(c2ccccc2)CC1(C)C (stereo not drawn) | -1.2
COC(=O)c1ccc(C2Nc3ccc4ncccc4c3C3=C2C(=O)CC(C)(C)C3)cc1 (stereo not drawn) | 0.6
CC1=C(C(=O)OC(C)C)C(c2coc3ccc(Cl)cc3c2=O)C2=C(CCCC2=O)N1 (stereo not drawn) | -1.1
CC1CCCCC1NS(=O)(=O)c1cc(C(=O)Nc2ccc(Br)cc2)ccc1F (stereo not drawn) | -0.41
Cc1ccc(N2C(=O)C(Cl)=C(NC3CCCCC3)C2=O)c(C)c1 | -0.19
CCCNS(=O)(=O)c1ccc(F)c(C(=O)Nc2ccc(Br)cc2)c1 | -0.07
CCCOc1ccc(C2Oc3ccccc3C3CC(c4cccs4)=NN32)cc1 (stereo not drawn) | 0.06

Next part.
SMILES | Measles inh
COc1cc2c(cc1NC(=O)CN1CCN(S(=O)(=O)c3ccc(C(C)C)cc3)CC1)oc1ccccc12 | -0.14
COc1ccc(C(NC(=O)c2ccc(=O)[nH]c2)C(=O)Nc2ccc(C(C)C)cc2)cc1 (stereo not drawn) | 1.2
COc1ccc(C2C(C(C)=O)=C(C)Nc3ncnn32)cc1 (stereo not drawn) | -0.06
Cc1ccccc1C(=O)N1CCC(C(=O)Nc2ccccc2C(F)(F)F)CC1 | 0.84
O=C1CN(C(=O)C2CC2)C(c2ccc(F)cc2)c2cc(Br)ccc2N1 (stereo not drawn) | 0.35
Cc1ccc(N=Cc2cc3c(cc2[N+](=O)[O-])OCO3)cc1I | 0.67
COc1cccc(-c2cc(C(F)(F)F)nc(NCCc3ccc(OC)c(OC)c3)n2)c1 | 0.04
Cc1ccc(-n2nc3c(c2NC(=O)c2ccc(C)c(C)c2)CSC3)c(C)c1 | 0.04
CCN1CCN(Cc2nc3ccc([N+](=O)[O-])cc3c(=O)n2-c2ccc(OC)cc2OC)CC1 | 1.3
O=C1c2ccccc2-c2onc3c(N4CCN(C(=O)c5ccco5)CC4)cc(Nc4ccc5c(c4)OCO5)c1c23 | 0.14
COc1ccc(-c2nc(-c3cccs3)c(-c3cccs3)[nH]2)c(OC)c1C | 0.52
COc1cc2nc(SCc3ccc(C)cc3)n3nc(C)nc3c2cc1OC | 0.73
CCOC(=O)C1=C(C)NC(=O)N(C(C)=O)C1c1ccccc1Cl (stereo not drawn) | -0.63
CC(=O)N1CCc2cc(Br)cc(S(=O)(=O)CCC(=O)NCCc3ccc(Cl)cc3)c21 | -0.25
O=C(CSc1ncnc2c1c(-c1ccccc1)cn2-c1cccc(F)c1)OCc1ccccc1 | 0.84
CC(C)(C)c1cnnn1-c1ccc([N+](=O)[O-])cc1 | -0.3
c1ccc2c(c1)cc(-c1nc3ccccc3[nH]1)c1nc3ccccc3n12 | 1
Cc1ccc(CCNC(=O)c2ccc3c(=O)[nH]c4c(C(=O)NC5CCCC5)sc(=S)n4c3c2)cc1 | -0.28
CCCCCOC(=O)C1=C(C)NC2=C(C(=O)CC(C)(C)C2)C1c1ccccc1I (stereo not drawn) | 1.3
CCC(C)(C)C1CCC2(CC1)SCC(=O)N2c1ccc(Br)cc1 (stereo not drawn) | 0.18

In another format: entries from further up.
COc1ccc(C2C(C(C)=O)=C(C)Nc3ncnn32)cc1 (stereo not drawn)
  Measles inh: -0.06
Cc1ccccc1C(=O)N1CCC(C(=O)Nc2ccccc2C(F)(F)F)CC1
  Measles inh: 0.84

Next part.
SMILES | Measles inh
CN(C)c1ccc(-c2nnc(SCc3ccccc3)o2)cc1 | -0.45
CCOC(=O)c1ccc(N2C(=N)SCC2=O)cc1 | 0.41
O=C(CSc1ncccc1C(=O)NCc1cccnc1)Nc1cccc(C(F)(F)F)c1 | 0.8
N#Cc1cc(Sc2nc3ccccc3o2)c([N+](=O)[O-])cc1C#N | -0.18
CC1=C(C)CC2C(=O)N(c3ccc(F)cc3)C(=O)C2C1 (stereo not drawn) | 0.1
CC(C)(C)c1ccc(-c2nc3ccccc3c(=O)[nH]2)cc1 | -0.33
CCCCc1c(C)c(C#N)c2[nH]c3ccccc3n2c1=O | -0.78
O=C(Nc1cc(C(=O)N2CCCCCC2)ccc1N1CC2CC(C1)c1cccc(=O)n1C2)c1ccccc1Br (stereo not drawn) | 1
CCn1c(C(C)NC(=O)C(C)(C)C)nc2ccccc21 (stereo not drawn) | 3
O=C(Cc1ccccc1)Nc1ccc2oc(-c3ccc(I)cc3)nc2c1 | -0.52
COC(=O)C1=CN(C(C)C)C=C(C(=O)OC)C1c1ccc(Cl)c([N+](=O)[O-])c1 | -1.1
COc1ccc(-n2c(=S)[nH]c3cc(C(=O)NCCCN4CCOCC4)ccc3c2=O)cc1OC | -0.41
CCOC(=O)c1sc(N)c(C#N)c1C | -0.66
O=C(c1ccc2c(=O)n(Cc3ccco3)c(=S)[nH]c2c1)N1CCN(c2cccc(Cl)c2)CC1 | -0.85
COc1ccccc1CC(=O)Nc1ccc(OC(C)=O)cc1C(=O)O | -0.61
CCOC(=O)c1ccc(NC(c2ccccc2)c2c(C)n(C)n(-c3ccccc3)c2=O)cc1 (stereo not drawn) | 0.11
COc1ccc(S(=O)(=O)N(CC(=O)NC2CC2)c2ccc(Cl)cc2)cc1 | -0.77
COC(=O)c1ccc(SCc2ccccc2F)c([N+](=O)[O-])c1 | 0.13
C=CCOc1ccc2c3c(c(=O)oc2c1C)CCC3 | -0.77
O=C1C2CC=CCC2C(=O)N1c1ccc(-c2nc3ccc(N4C(=O)C5CC=CCC5C4=O)cc3[nH]2)cc1 (stereo not drawn) | 0.47
O=C(COC(=O)c1cccc(NC(=O)c2ccc(Cl)cc2)c1)c1ccccc1 | -0.51
COCc1nnc(NC(=O)c2c(-c3ccccc3)noc2C)s1 | -1.8
CC(=O)N1c2c(cc(Br)cc2S(=O)(=O)N2CCC(C)CC2)CC1C (stereo not drawn) | 0.92
CCOc1ccc(NC(=O)c2cc(OC)c(OC)c(OC)c2)cc1 | -1.1
O=C(CSc1nccn1-c1ccccc1)N1CCc2ccccc21 | 1.1
O=c1[nH]c2ccc(S(=O)(=O)N3CCN(c4ccccc4)CC3)cc2o1 | -0.48
CCOc1ccc(NC(=O)CN(c2cccc(C(F)(F)F)c2)S(=O)(=O)c2ccccc2)cc1 | -1.1
O=C(NCc1ccc2c(c1)OCO2)C1CCN(c2nc3cc(Cl)ccc3s2)CC1 | 0.8
CCOc1ccc2nc(SCC(=O)Nc3ccccc3Oc3ccccc3)sc2c1 | 0.18
COc1ccc(C)cc1Nc1nc(C)nc2sc3c(c12)CCCC3 | -0.59
c1ccc(-c2cnc3n2CCCCC3)cc1 | 0.02
NCCNc1ccc([N+](=O)[O-])cc1C(F)(F)F | -0.64
CC(=O)N1c2c(cc(Br)cc2S(=O)(=O)NCc2ccc3c(c2)OCO3)CC1C (stereo not drawn) | -0.65
O=C(Nc1nccs1)c1ccc(Cl)cc1[N+](=O)[O-] | -0.65
CC1(C)CC(=O)c2cc(OCC(=O)NCc3ccccc3)ccc2O1 | 1.3
COc1cc(Cl)c(C)cc1NC(=O)C1c2cc(OC)c(OC)cc2C(=O)N(C)C1c1cccs1 (stereo not drawn) | -0.51
O=C(Nc1ccccc1Cl)C1(S(=O)(=O)c2ccc(Cl)cc2)CC1 | 0.59
CC(C)(C)c1ccc(C(=O)CC2(O)C(=O)N(Cc3ccccc3)c3ccc(Cl)cc32)cc1 (stereo not drawn) | -0.22
COc1cccc(N=Cc2cc([N+](=O)[O-])ccc2O)c1 | -0.01

In the list so far, 16 contain a nitro group on carbon:
SMILES | Measles inh
O=[N+]([O-])c1c(Oc2ccc(Cl)cc2)ccc2nsnc12 | -0.31
Cc1cccc(C(=O)Oc2ccc(C=Nc3ccccc3Cl)cc2[N+](=O)[O-])c1 | 0.72
O=C(CC1(C(F)(F)F)NCCN1)c1cccc([N+](=O)[O-])c1 | 1.4
CCCCOc1cccc(C(=O)N2CCN(c3ccc([N+](=O)[O-])cc3)CC2)c1 | -0.7
C[n+]1cc(-c2ccc3cccc([N+](=O)[O-])c3n2)cc2ccccc21 | 1.5
Cc1c(NC(=O)c2ccc(F)cc2[N+](=O)[O-])c(=O)n(-c2ccccc2)n1C | -1.3
CCC1C(=O)C(C)(C)C(=O)OC1c1cccc([N+](=O)[O-])c1 (stereo not drawn) | 2.1
Cc1ccc(N=Cc2cc3c(cc2[N+](=O)[O-])OCO3)cc1I | 0.67
CCN1CCN(Cc2nc3ccc([N+](=O)[O-])cc3c(=O)n2-c2ccc(OC)cc2OC)CC1 | 1.3
CC(C)(C)c1cnnn1-c1ccc([N+](=O)[O-])cc1 | -0.3
N#Cc1cc(Sc2nc3ccccc3o2)c([N+](=O)[O-])cc1C#N | -0.18
COC(=O)C1=CN(C(C)C)C=C(C(=O)OC)C1c1ccc(Cl)c([N+](=O)[O-])c1 | -1.1
COC(=O)c1ccc(SCc2ccccc2F)c([N+](=O)[O-])c1 | 0.13
NCCNc1ccc([N+](=O)[O-])cc1C(F)(F)F | -0.64
O=C(Nc1nccs1)c1ccc(Cl)cc1[N+](=O)[O-] | -0.65
COc1cccc(N=Cc2cc([N+](=O)[O-])ccc2O)c1 | -0.01
